UUG fidelity: modulators of yeast start codon fidelity, primary screen, whole organism, S. cerevisiae, single point, plate reader | S. cerevisiae UUG-firefly luciferase reporter, luminescence/redox ratio | activity score, % at 18.7 µM | 0.13% of 350,000 active | AID 602363, 2012;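 active means replicate mean at a twofold rise or more, about +100% in these data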;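 further: firefly luciferase made from a UUG start codon reports start codon fidelity; reporter light over untreated wells divided by growth signal over untreated wells; some hits fall short of that in this replicate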
HIV Env fusion: inhibitors of HIV-1 Env-driven cell-cell fusion, primary screen, HeLa-JRFL effector, CEM21 target cells, luciferase; inhibition, % at 12.3 µM; 1.1% of 360,000 active;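 active means mean replicate inhibition score of at least 50 and every replicate individually at or above 50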;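 further: 0% = plate neutral controls and 100% = maraviroc near 300 nM; one replicate is shown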
Starred values were filed as active, the others as inactive; [ ] = remark or other dose. These rows are one share of the data; rates above refer to the full screens.

SMILES | UUG fidelity | HIV Env fusion
CC(C)C#Cc1ccc2c(c1)O[C@H](CN(C)C(=O)CC1CC1)[C@@H](C)CN([C@H](C)CO)S2(=O)=O | -4 | -52[16.7 µM]
C[C@@H]1CN([C@H](C)CO)C(=O)c2cc(NC(=O)C3CCCCC3)ccc2O[C@@H]1CN(C)S(C)(=O)=O | 4 | -7[16.7 µM]
C[C@@H]1CN([C@H](C)CO)C(=O)c2cc(C3=CCCCC3)cnc2O[C@H]1CN(C)Cc1cccc(F)c1 | 14 | 10[16.7 µM]
O=C(C[C@@H]1C[C@H]2c3cc(NC(=O)Nc4ccc(C(F)(F)F)cc4)ccc3O[C@H]2[C@@H](CO)O1)NC1CCCCC1 | 8 | -1[16.7 µM]
Cc1noc(C)c1S(=O)(=O)Nc1ccc2c(c1)CC(=O)N([C@H](C)CO)C[C@@H](C)[C@H](CN(C)C(=O)Nc1ccc3c(c1)OCO3)O2 | 14 | -8[16.7 µM]
C[C@H](CO)N1C[C@H](C)[C@H](CN(C)C(=O)C2CC2)Oc2cc(-c3ccncc3)ccc2S1(=O)=O | -10 | -7[16.7 µM]
Cc1noc(C)c1S(=O)(=O)N(C)C[C@H]1OCCCC[C@H](C)Oc2ccc(NC(=O)CCC(F)(F)F)cc2C(=O)N([C@H](C)CO)C[C@@H]1C | 12 | -8[16.7 µM]
C[C@@H]1CN([C@H](C)CO)C(=O)c2cc(NS(C)(=O)=O)ccc2O[C@@H](C)CCCCO[C@H]1CN(C)Cc1ccc2c(c1)OCO2 | 26 | 10[16.7 µM]
O=C(Cc1ccncc1)NCC[C@H]1CC[C@H](NC(=O)Nc2ccc(F)cc2)[C@@H](CO)O1 | 18 | 23[16.7 µM]
C[C@@H]1CCCCO[C@H](CN(C)Cc2ccccc2)[C@H](C)CN([C@@H](C)CO)C(=O)c2cc(NC(=O)NC3CCCCC3)ccc2O1 | 23 | 22[16.7 µM]
C[C@@H]1CN([C@@H](C)CO)C(=O)c2cc(-c3ccccc3)cnc2O[C@H]1CN(C)C(=O)C1CCOCC1 | -12 | -13[16.7 µM]
C[C@@H]1CN([C@H](C)CO)C(=O)c2cc(C#C[C@@H](C)O)cnc2O[C@H]1CN(C)C(=O)c1ccncc1 | -7 | -18[16.7 µM]
Cc1ccc(S(=O)(=O)NCC[C@H]2CC[C@@H](NS(=O)(=O)c3ccccc3Cl)[C@H](CO)O2)cc1 | -1 | -13[16.7 µM]
C[C@@H]1CCCCO[C@@H](CN(C)Cc2ccc(C(F)(F)F)cc2)[C@H](C)CN([C@H](C)CO)C(=O)c2cc(NS(=O)(=O)c3cn(C)cn3)ccc2O1 | -5 | -20[16.7 µM]
COc1cccc(S(=O)(=O)N[C@@H]2CC[C@@H](CC(=O)NCc3ccncc3)O[C@H]2CO)c1 | -19 | 14[16.7 µM]
Cc1noc(C)c1S(=O)(=O)Nc1cccc2c1O[C@H](CN(C)Cc1ccncc1)[C@H](C)CN([C@@H](C)CO)C2=O | -1 | 3[16.7 µM]
CC(C)NC(=O)Nc1ccc2c(c1)C(=O)N([C@@H](C)CO)C[C@@H](C)[C@@H](CN(C)Cc1ccc(Cl)c(Cl)c1)O2 | -4 | -6[16.7 µM]
C[C@H](CO)N1C[C@H](C)[C@H](CN(C)S(=O)(=O)c2cn(C)cn2)OCCCC[C@H](C)Oc2ccc(NS(=O)(=O)c3cccs3)cc2C1=O | 7 | -6[16.7 µM]
COc1ccc(NC(=O)Nc2ccc3c(c2)CC(=O)N([C@@H](C)CO)C[C@@H](C)[C@@H](CN(C)C(=O)Nc2cccc4ccccc24)O3)cc1 | -6 | 17[16.7 µM]
CCCN(C)C[C@H]1OCCCC[C@@H](C)Oc2ccc(NS(=O)(=O)c3ccc(F)cc3)cc2C(=O)N([C@H](C)CO)C[C@@H]1C | 12 | -14[16.7 µM]
C[C@@H]1CN([C@@H](C)CO)C(=O)c2cc(-c3cncnc3)cnc2O[C@H]1CN(C)C(=O)Nc1ccc2c(c1)OCO2 | -5 | 8[16.7 µM]
O=C(C[C@@H]1C[C@H]2c3cc(NC(=O)C4CCC4)ccc3O[C@H]2[C@H](CO)O1)NCC1CC1 | 104* | -20[16.7 µM]
Cc1cc(C(=O)Nc2cccc3c2O[C@H](CN(C)CC2CC2)[C@@H](C)CN([C@@H](C)CO)C3=O)n(C)n1 | -9 | 25[16.7 µM]
C[C@H]1CN([C@@H](C)CO)C(=O)c2cc(-c3ccccc3)cnc2O[C@H]1CN(C)C(=O)c1ccccc1F | 5 | 6[16.7 µM]
COCC(=O)N(C)C[C@H]1Oc2ncc(C#Cc3cccnc3)cc2C(=O)N([C@@H](C)CO)C[C@H]1C | -23 | -14[16.7 µM]
C[C@@H]1CN([C@H](C)CO)C(=O)c2cc(NC(=O)Nc3ccccc3)ccc2O[C@@H]1CN(C)C(=O)Nc1ccc2c(c1)OCO2 | 3 | -34[16.7 µM]
COc1ccc(NC(=O)N(C)C[C@H]2Oc3ccc(NS(=O)(=O)c4ccc(OC)cc4)cc3C(=O)N([C@@H](C)CO)C[C@@H]2C)cc1 | -11 | 7[16.7 µM]
O=C(C[C@@H]1C[C@H]2c3cc(NC(=O)Nc4ccccc4F)ccc3O[C@H]2[C@H](CO)O1)NCC1CC1 | 0 | -31[16.7 µM]
C[C@@H]1CCCCO[C@@H](CN(C)C(=O)NC2CCCCC2)[C@H](C)CN([C@H](C)CO)C(=O)c2cc(NC(=O)Nc3ccc4c(c3)OCO4)ccc2O1 | -5 | 8[16.7 µM]
Cc1noc(C)c1NC(=O)NCC[C@H]1CC[C@@H](NC(=O)Nc2cccc(Cl)c2)[C@@H](CO)O1 | 9 | -6[16.7 µM]

Sorted by SMILES length (rising): some entries from above
SMILES | UUG fidelity | HIV Env fusion
COCC(=O)N(C)C[C@H]1Oc2ncc(C#Cc3cccnc3)cc2C(=O)N([C@@H](C)CO)C[C@H]1C | -23 | -14[16.7 µM]
O=C(C[C@@H]1C[C@H]2c3cc(NC(=O)Nc4ccccc4F)ccc3O[C@H]2[C@H](CO)O1)NCC1CC1 | 0 | -31[16.7 µM]
C[C@H]1CN([C@@H](C)CO)C(=O)c2cc(-c3ccccc3)cnc2O[C@H]1CN(C)C(=O)c1ccccc1F | 5 | 6[16.7 µM]
Cc1cc(C(=O)Nc2cccc3c2O[C@H](CN(C)CC2CC2)[C@@H](C)CN([C@@H](C)CO)C3=O)n(C)n1 | -9 | 25[16.7 µM]
Cc1noc(C)c1S(=O)(=O)Nc1cccc2c1O[C@H](CN(C)Cc1ccncc1)[C@H](C)CN([C@@H](C)CO)C2=O | -1 | 3[16.7 µM]
C[C@@H]1CN([C@@H](C)CO)C(=O)c2cc(-c3cncnc3)cnc2O[C@H]1CN(C)C(=O)Nc1ccc2c(c1)OCO2 | -5 | 8[16.7 µM]
CC(C)NC(=O)Nc1ccc2c(c1)C(=O)N([C@@H](C)CO)C[C@@H](C)[C@@H](CN(C)Cc1ccc(Cl)c(Cl)c1)O2 | -4 | -6[16.7 µM]
C[C@H](CO)N1C[C@H](C)[C@H](CN(C)S(=O)(=O)c2cn(C)cn2)OCCCC[C@H](C)Oc2ccc(NS(=O)(=O)c3cccs3)cc2C1=O | 7 | -6[16.7 µM]

Following part.
SMILES | UUG fidelity | HIV Env fusion
O=C(C[C@@H]1C[C@@H]2c3cc(NC(=O)c4cccnc4)ccc3O[C@@H]2[C@H](CO)O1)NCc1ccccc1 | -8 | -1[16.7 µM]
C[C@@H]1CN([C@@H](C)CO)C(=O)c2cc(-c3ccccc3)cnc2O[C@H]1CN(C)C(=O)Nc1ccccc1F | -1 | -7[16.7 µM]
C[C@@H]1CN([C@@H](C)CO)C(=O)c2cc(C#CC3CC3)cnc2O[C@@H]1CN(C)S(=O)(=O)c1cccc(F)c1 | 5 | 22[16.7 µM]
C[C@@H]1CN([C@H](C)CO)C(=O)Cc2cc(NS(=O)(=O)c3ccc(Cl)cc3)ccc2O[C@@H]1CN(C)C(=O)Nc1cccc2ccccc12 | -5 | -4[16.7 µM]
O=C(NCC[C@@H]1CC[C@@H](NC(=O)C2CCCCC2)[C@@H](CO)O1)c1cnccn1 | -2 | 18[16.7 µM]
COc1ccc(CN(C)C[C@H]2Oc3ccc(NS(=O)(=O)c4ccc(OC)cc4)cc3C(=O)N([C@H](C)CO)C[C@@H]2C)cc1 | 14 | 2[16.7 µM]
Cc1ccc(S(=O)(=O)N(C)C[C@@H]2Oc3ccc(NC(=O)Nc4ccc5c(c4)OCO5)cc3C(=O)N([C@@H](C)CO)C[C@H]2C)cc1 | -4 | 14[16.7 µM]
C[C@@H]1CN([C@@H](C)CO)C(=O)c2cc(NC(=O)C3CC3)ccc2O[C@H]1CN(C)Cc1ccncc1 | -13 | -6[16.7 µM]
COc1ccc(S(=O)(=O)N(C)C[C@@H]2OCCCC[C@H](C)Oc3ccc(NC(=O)NC(C)C)cc3C(=O)N([C@H](C)CO)C[C@@H]2C)cc1 | 5 | -11[16.7 µM]
C[C@@H]1CN([C@H](C)CO)C(=O)c2cc(NC(=O)CCC(F)(F)F)ccc2O[C@H]1CN(C)C(=O)NC1CCCCC1 | 1 | -3[16.7 µM]
N#C[C@@H]1[C@@H](c2ccc(-c3ccccc3)cc2)[C@H](CO)N1C(=O)Cc1ccccc1 | 6 | 1[16.7 µM]
CC(C)NC(=O)Nc1ccc2c(c1)C(=O)N(C)[C@@H]1CC[C@@H](CC(=O)NCC(F)(F)F)O[C@H]1CO2 | 23 | -19[16.7 µM]
Cc1noc(C)c1NC(=O)N(C)C[C@@H]1Oc2ccc(NC(=O)C3CCCCC3)cc2CC(=O)N([C@H](C)CO)C[C@H]1C | 4 | 8[16.7 µM]
C[C@H](CO)N1C[C@H](C)[C@H](CN(C)C(=O)NC2CCCCC2)OCCCC[C@H](C)Oc2ccc(NC(=O)Nc3ccc4c(c3)OCO4)cc2C1=O | -6 | 18[16.7 µM]
CCCC(O)C#Cc1cnc2c(c1)C(=O)N([C@H](C)CO)C[C@H](C)[C@H](CN(C)S(=O)(=O)c1cccc(F)c1)O2 (stereo partly drawn) | 37 | -1[16.7 µM]
C[C@@H]1CN([C@H](C)CO)C(=O)c2cc(C#Cc3ccccc3F)cnc2O[C@H]1CN(C)C(=O)C1CCC1 | 23 | 20[16.7 µM]
COC(=O)C[C@H]1CC[C@@H]2[C@H](COc3ccc(NC(=O)c4ccc(F)cc4)cc3C(=O)N2C)O1 | 1 | 1[16.7 µM]
CC(C)NC(=O)N(C)C[C@@H]1Oc2ncc(C#Cc3ccccc3F)cc2C(=O)N([C@H](C)CO)C[C@H]1C | -3 | -1[16.7 µM]
CCC(=O)N(C)C[C@H]1Oc2cc(C#CCOC)ccc2S(=O)(=O)N([C@@H](C)CO)C[C@@H]1C | 6 | -25[16.7 µM]
C[C@@H]1CN([C@H](C)CO)C(=O)Cc2cc(NC(=O)Cn3cnnn3)ccc2O[C@@H]1CN(C)Cc1ccc(C(F)(F)F)cc1 | 10 | 22[16.7 µM]
CC(C)NC(=O)Nc1ccc2c(c1)C(=O)N([C@H](C)CO)C[C@H](C)[C@H](CN(C)S(=O)(=O)c1ccc(Cl)cc1)OCCCC[C@@H](C)O2 | 3 | -20[16.7 µM]
COc1ccc(S(=O)(=O)N(C)C[C@H]2OCCCC[C@@H](C)Oc3ccc(NS(=O)(=O)c4c(C)noc4C)cc3C(=O)N([C@H](C)CO)C[C@H]2C)cc1 | 17 | 14[16.7 µM]
C[C@@H]1CCCCO[C@H](CN(C)C(=O)C2CCCCC2)[C@@H](C)CN([C@@H](C)CO)C(=O)c2cc(NC(=O)Cc3ccccc3)ccc2O1 | 2 | -56[16.7 µM]
O=C(Cc1ccncc1)NCC[C@@H]1CC[C@@H](NC(=O)C2CCOCC2)[C@H](CO)O1 | -9 | 7[16.7 µM]
Cc1noc(C)c1S(=O)(=O)N(C)C[C@@H]1Oc2ccc(NC(=O)C3CC3)cc2CC(=O)N([C@H](C)CO)C[C@@H]1C | -17 | 7[16.7 µM]
C[C@@H]1CN([C@H](C)CO)C(=O)c2cc(NS(=O)(=O)c3cn(C)cn3)ccc2O[C@@H](C)CCCCO[C@@H]1CN(C)S(C)(=O)=O | 6 | -8[16.7 µM]
C[C@H](CO)N1C[C@H](C)[C@H](CN(C)Cc2ccc(F)cc2)Oc2ncccc2C1=O | -14 | -12[16.7 µM]
Cc1noc(C)c1S(=O)(=O)Nc1ccc2c(c1)C(=O)N([C@@H](C)CO)C[C@H](C)[C@@H](CN(C)C(=O)c1ccncc1)OCCCC[C@H](C)O2 | 2 | 9[16.7 µM]
COc1ccccc1CNC(=O)C[C@@H]1C[C@H]2c3cc(NC(=O)NC4CCCC4)ccc3O[C@H]2[C@@H](CO)O1 | -12 | 11[16.7 µM]
CCC(=O)N1C[C@H](C)[C@H](OC)CN(C)C(=O)c2cc(NC(=O)Nc3cccc(F)c3)ccc2OC[C@H]1C | 17 | 4[16.7 µM]
O=C(Cc1ccncc1)NCC[C@H]1CC[C@@H](NC(=O)Nc2ccc(Cl)cc2)[C@H](CO)O1 | -10 | -6[16.7 µM]
CCC(=O)Nc1ccc2c(c1)C(=O)N(C)C[C@H](OC)[C@@H](C)CN(C(C)=O)[C@@H](C)CO2 | -4 | 3[16.7 µM]
C[C@H](CO)N1C[C@H](C)[C@@H](CN(C)C(=O)Nc2ccc(C(F)(F)F)cc2)Oc2ccc(NS(=O)(=O)c3ccccc3)cc2CC1=O | 10 | 5[16.7 µM]
C[C@H](CO)N1C[C@H](C)[C@@H](CN(C)C(=O)Cc2ccccn2)Oc2ncc(C#CC3CC3)cc2C1=O | 9 | -15[16.7 µM]
Cc1ccc(S(=O)(=O)N[C@H]2C=C[C@@H](CC(=O)NCCc3ccncc3)O[C@H]2CO)cc1 | -15 | -27[16.7 µM]
CCCC#Cc1cnc2c(c1)C(=O)N([C@@H](C)CO)C[C@H](C)[C@@H](CN(C)C(=O)Nc1cccc(F)c1)O2 | 19 | 3[16.7 µM]
C[C@H]1CN([C@@H](C)CO)C(=O)c2cc(Br)cnc2O[C@H]1CN(C)S(=O)(=O)c1ccc(F)cc1 | 10 | 24[16.7 µM]
